gsp ag: agonists of gsp mutant (McCune-Albright syndrome); gsp mutant cells, cAMP HTRF, 30 min; control for the full effect not named in the record; Potency, µM (titrated, usually from 76.9 µM), for inactives: top-dose activation (cAMP increase), usual class: activators; 340,000 compounds, 0.13% hits; active = well fitted activation curve with a large enough effect; inconclusive = small, poorly fitted or top-dose-only effect, or another doubt; inactive = no such curve, though single readings can be large or run the other way; cell line not stated here;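 note: phosphodiesterase inhibitor Ro 20-1724 added with compounds to block cAMP breakdown; potency is the fitted concentration of half-maximal effect; nearly all actives have a fitted effect of over 60% in size; about a fifth of the inactives were tested at one dose only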
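Cells stably selected in G418 were plated at 2000/well, grown 16-24 hr, then given compounds in DMSO with the PDE inhibitor […] (300 uM solution added) for 30 min at 37C; cAMP was read by HTRF.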
TRPV1 potentiator: human TRPV1 potentiation; TRPV1-expressing cells, Fluo-8 calcium influx, capsaicin EC20 potentiation; host cell line not named in the record; control for the full effect not named in the record; Q8NER1; 320,000 compounds, 0.02% hits; potentiation, % at 8.33 µM; AID 540277; active means potentiation above 80%; inconclusive means 30% to 80%; inactive means below 30%; note: 0% is about no effect
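Cells expressing TRPV1 were dye-loaded with Fluo-8 and read kinetically: 10 s baseline, 3 min after compound (agonist portion), then 2 min after EC20 capsaicin (allosteric enhancer portion). Calcium-bound dye fluorescence at 480/520 nm.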
gsp antag: antagonists of gsp mutant (McCune-Albright syndrome); AID 624288; gsp-mutant cells, cAMP HTRF, 30 min; control for the full effect not named in the record; Potency, µM (highest dose often 76.9 µM), for inactives: at the top dose activity change, negative = inhibition, hits mostly inhibitors; 340,000 compounds, 0.4% hits; active = falling curve of any shape with a large fitted effect; inconclusive = falling curve, mostly with a smaller effect; inactive = flat or rising curve; cell line not stated here;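 note: intracellular cAMP measured with PDE inhibitor Ro 20-1724 present during compound exposure; potency is the fitted concentration of half-maximal effect; % is set by controls: 0 for no effect and ±100 for the full control effect; nearly all actives have a fitted effect of over 65% in size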
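HTRF cAMP measurement after 30 min RT detection following 30 min, 37C compound treatment alongside […] (added as 300 uM solution) in G418-selected cells seeded at 2000/well and grown 16–24 h.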
Menin MLL FP FL: displaces fluorescein MLL peptide from human menin; 290,000 tested, under 10 active; AID 1766; FP activity change, % at 61.4 µM; Fluorescence polarization, fluorescein-MLL peptide displacement from menin; inconclusive = falling polarisation curve, or a change in total fluorescence; inactive = total fluorescence flat and polarisation flat or rising; no compound was filed as active; the % refers to the polarisation; negative = inhibition;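 note: % of control where 0% means no effect; inhibitors lower the polarisation; unlabelled MLL peptide was the positive control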
D2 potentiator: positive allosteric modulators of human D2 dopamine receptor | 360,000 compounds, 0.23% hits | potentiation, % (concentration not given with the values) | P14416 | DiscoveRx D2 beta-arrestin cells, luminescence, 90 min; 100% = 57 uM dopamine signal; active = potentiation of 50% or more; inconclusive = 30% to 50%; inactive = 30% or less;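 note: tested on top of an EC20 dose of dopamine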
Target sequence (P14416 whole entry, looked up): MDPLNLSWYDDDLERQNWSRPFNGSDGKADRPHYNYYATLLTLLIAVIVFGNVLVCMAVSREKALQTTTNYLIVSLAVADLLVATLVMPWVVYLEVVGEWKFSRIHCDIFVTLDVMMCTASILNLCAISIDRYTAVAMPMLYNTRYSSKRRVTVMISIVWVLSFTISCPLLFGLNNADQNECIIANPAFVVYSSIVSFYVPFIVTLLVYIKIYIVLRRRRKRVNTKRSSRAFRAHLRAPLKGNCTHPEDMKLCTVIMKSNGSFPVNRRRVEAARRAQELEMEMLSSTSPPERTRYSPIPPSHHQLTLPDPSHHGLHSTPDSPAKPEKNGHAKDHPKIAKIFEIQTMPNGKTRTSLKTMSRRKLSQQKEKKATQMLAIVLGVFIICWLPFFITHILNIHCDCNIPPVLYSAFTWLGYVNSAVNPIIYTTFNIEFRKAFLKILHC
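PathHunter beta-arrestin assay in DiscoveRx D2 cells. Compounds were added with an EC20 of dopamine (50 nM final) for 90 min at 37 deg C. Luminescence was read 1 h after detection reagent, with 57 uM dopamine as the EC100 control.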
Sfp PPTase inh: blocks B. subtilis Sfp PPTase activity. Q9F4F7. Biochemical Sfp PPTase activity, qHTS. Potency, µM, for the others: max response, negative = inhibition, usual class: inhibitors. 310,000 compounds, 3.5% hits. AID 1490; active = well fitted inhibition curve with a large enough effect; inconclusive = small, poorly fitted or top-dose-only effect, or another doubt; inactive = no such curve, though single readings can be large or run the other way;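 note: the enzyme is Sfp with the accession as filed and its product quenches rhodamine fluorescence; potency is the fitted concentration of half-maximal effect; 0% = enzyme reaction without inhibitor and -100% = no enzyme wells; top concentration of the series not given in the record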
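Buffer: 50 mM Hepes-Na pH 7.6, 10 mM MgCl2, 0.01% Nonidet P-40, 0.01% BSA. Enzyme 15 nM, pre-exposed to compound 15 min; substrates then added and fluorescence change tracked over 30 min.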
ClpP mod: qHTS Assay for Activators of ClpP; ATP-dependent Clp protease proteolytic subunit (Bacillus subtilis (strain 168)), P80244; AID 651965, 2013; 340,000 compounds, 1.9% hits; purified B. subtilis ClpP, FRET peptide cleavage, 20 min; Potency, µM (titrated, usually from 57.5 µM), for inactives: at the highest dose activity change, negative = active; active = well fitted falling curve with a large enough effect; inconclusive = small, poorly fitted or top-dose-only effect; inactive = no such curve, though single readings can be large or run the other way; note: potency is the fitted concentration of half-maximal effect; the source files actives as falling curves though it sought activators and does not explain the sign; nearly all actives have a fitted effect of over 65% in size; many hits overshoot -100%
Target sequence (P80244 whole entry, looked up): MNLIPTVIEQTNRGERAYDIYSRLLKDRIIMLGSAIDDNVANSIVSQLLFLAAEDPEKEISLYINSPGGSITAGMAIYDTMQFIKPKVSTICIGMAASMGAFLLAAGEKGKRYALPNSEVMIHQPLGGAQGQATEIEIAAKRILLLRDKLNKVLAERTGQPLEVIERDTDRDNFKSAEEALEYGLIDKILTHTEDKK
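ClpP 10 microg/mL final, pH 8 Tris/KCl buffer with BSA, glycerol, Tween-20; compound pinned in; FRET-FV substrate; RT 20 min; Ex320/Em430; ΔFRET vs ADEP 5.8 microM, DMSO, no enzyme.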
* hit, by the source's call; ? = inconclusive; · = not tested or not shown; [ ] = remark or other dose.

item | mol | gsp ag | TRPV1 potentiator | gsp antag | Menin MLL FP FL | D2 potentiator | Sfp PPTase inh | ClpP mod
1 | O=C(N/N=C/c1coc2ccccc2c1=O)c1ccccc1 | 24%[15.4 µM] | 7 | 8% | -6.6 | 2 | 10% | ·
2 | O=C(O)c1cc([N+](=O)[O-])ccc1NCCO | -1% | 13 | 7% | -3.6 | -26 | 12% | -0.6%
3 | C=CCn1c(N)c(C(=O)N2CCN(C)CC2)sc1=S | ? | -8 | 7% | 2.8 | -20 | -24% | -2.5%
4 | Cn1c(CN2CCOCC2)nnc1SCC(=O)Nc1ccc([N+](=O)[O-])cc1O | ? | 6 | -5% | · | -4 | 9% | -1.9%
5 | O=C(CSc1ncnc2c1cnn2Cc1ccccc1)Nc1ccc2c(c1)OCCO2 | -3% | 8 | 6% | -0.9 | -12 | 11% | 4.9%
6 | O=C(Cc1ccc2c(c1)OCCO2)N1CCN(S(=O)(=O)c2ccccc2C(F)(F)F)CC1 | -3% | -15 | -5% | 0.5 | -7 | -4% | -7.3%
7 | Cc1ccc2nsnc2c1S(=O)(=O)N1CCCC1C(=O)O (stereo unspecified) | 11%[15.4 µM] | -9 | -4% | 2.1 | -2 | 20% | ·
8 | COc1ccc(N2CCN(C(=O)COc3ccc4c(C)c(C)c(=O)oc4c3C)CC2)cc1 | 2% | 1 | 4% | · | 4 | 10% | 0.1%
9 | CC1SC(=S)N(c2ccc(N(C)C)cc2)C1=O (stereo unspecified) | 12%[15.4 µM] | 2 | -15% | 0.1 | -11 | -4% | ·
10 | Nc1no[n+]([O-])c1-c1ccccc1 | -7%[15.4 µM] | 1 | · | -1.1 | -14 | 11% | ·
11 | CC(=O)Nc1ccc(C=C(C(C)=O)C(C)=O)cc1 | -2%[15.4 µM] | -10 | -1% | 2.7 | -7 | 8% | -2.3%
12 | CCN(CC)CCNC(=O)c1ccc2c(c1)ncn2C1CCCCC1 | -8% | 2 | -7% | 0.8 | -29 | 6% | -0.5%
13 | C=CCn1c(SCC(=O)c2ccc(O)c(O)c2)nnc1-c1ccc(C)cc1 | · | 26 | -23% | · | 1 | · | 1.3%
14 | CC1=NN(c2ccc([N+](=O)[O-])cc2)C(c2ccccc2)C1 (stereo unspecified) | -1% | -16 | -18% | 12 | -17 | 12% | 0.5%
15 | CN1C/C(=N\S(=O)(=O)c2ccccc2)N(C)C1=O | -13% | 1 | 17% | 1.2 | -9 | -6% | -0.9%

Reprinted: compounds 4–15
item | mol | gsp ag | TRPV1 potentiator | gsp antag | Menin MLL FP FL | D2 potentiator | Sfp PPTase inh | ClpP mod
4 | Cn1c(CN2CCOCC2)nnc1SCC(=O)Nc1ccc([N+](=O)[O-])cc1O | ? | 6 | -5% | · | -4 | 9% | -1.9%
5 | O=C(CSc1ncnc2c1cnn2Cc1ccccc1)Nc1ccc2c(c1)OCCO2 | -3% | 8 | 6% | -0.9 | -12 | 11% | 4.9%
6 | O=C(Cc1ccc2c(c1)OCCO2)N1CCN(S(=O)(=O)c2ccccc2C(F)(F)F)CC1 | -3% | -15 | -5% | 0.5 | -7 | -4% | -7.3%
7 | Cc1ccc2nsnc2c1S(=O)(=O)N1CCCC1C(=O)O (stereo unspecified) | 11%[15.4 µM] | -9 | -4% | 2.1 | -2 | 20% | ·
8 | COc1ccc(N2CCN(C(=O)COc3ccc4c(C)c(C)c(=O)oc4c3C)CC2)cc1 | 2% | 1 | 4% | · | 4 | 10% | 0.1%
9 | CC1SC(=S)N(c2ccc(N(C)C)cc2)C1=O (stereo unspecified) | 12%[15.4 µM] | 2 | -15% | 0.1 | -11 | -4% | ·
10 | Nc1no[n+]([O-])c1-c1ccccc1 | -7%[15.4 µM] | 1 | · | -1.1 | -14 | 11% | ·
11 | CC(=O)Nc1ccc(C=C(C(C)=O)C(C)=O)cc1 | -2%[15.4 µM] | -10 | -1% | 2.7 | -7 | 8% | -2.3%
12 | CCN(CC)CCNC(=O)c1ccc2c(c1)ncn2C1CCCCC1 | -8% | 2 | -7% | 0.8 | -29 | 6% | -0.5%
13 | C=CCn1c(SCC(=O)c2ccc(O)c(O)c2)nnc1-c1ccc(C)cc1 | · | 26 | -23% | · | 1 | · | 1.3%
14 | CC1=NN(c2ccc([N+](=O)[O-])cc2)C(c2ccccc2)C1 (stereo unspecified) | -1% | -16 | -18% | 12 | -17 | 12% | 0.5%
15 | CN1C/C(=N\S(=O)(=O)c2ccccc2)N(C)C1=O | -13% | 1 | 17% | 1.2 | -9 | -6% | -0.9%

More entries follow:
item | mol | gsp ag | TRPV1 potentiator | gsp antag | Menin MLL FP FL | D2 potentiator | Sfp PPTase inh | ClpP mod
16 | O=C(COc1ccc(F)cc1Br)N1CCc2ccccc21 | 16% | -13 | 11% | -0.4 | -17 | 6% | 0.5%
17 | Cn1cc(S(=O)(=O)Nc2ccc(Cl)cc2Cl)c(=O)n(C)c1=O | -16% | -19 | 2% | -8.9 | -5 | 10% | -5.0%
18 | CN(C)c1ccc(P(=O)(CC(=O)N/N=C/c2ccc(C#N)cc2)OCCCl)cc1 (stereo unspecified) | 4% | 0 | 2% | 1.5 | -6 | 9% | -2.3%
19 | COc1ccc2c(c1)[C@H]1[C@H](CO2)[C@H](c2ccccc2)[C@]2(C)C(=O)Nc3cc(F)c(F)cc3C(=O)N12 | -49%[inhibitor] | 29 | ? | · | -4 | · | -9.6%
20 | COc1ccc2nc(N3C(=O)CC(Cc4cc(C)cc(C)c4)C3=O)sc2c1 (stereo unspecified) | -32% | -8 | -10% | 3.1 | -2 | 2% | -1.9%
21 | COc1ccc(CC(=O)N2CCN(c3ccccc3OC)CC2)cc1OC | 9%[15.4 µM] | -26 | -5% | 2.5 | -16 | 19% | -1.8%
22 | Cc1ccc2[nH]c(=O)c(CN(C(=O)c3cccs3)c3ccccc3)cc2c1 | -2% | 14 | -4% | 0.7 | -13 | 11% | ?
23 | C#CCOCCOCCOCCNc1nc(N2CCOCC2)nc(N2CCN(C(=O)[C@H](Cc3ccc(O)cc3)n3cc([C@@H](N)C(C)CC)nn3)CC2)n1 (stereo partly specified) | 25% | 1 | -6% | 0.2 | -19 | 9% | -3.1%
24 | COc1ccc(Cl)cc1C(=O)N1CCN=C1SC | 21% | 25 | 3% | 1.2 | -5 | 14% | 2.5%
25 | C=C(CN(C)C)C(=O)c1ccc(OC2OC(COC(C)=O)C(OC(C)=O)C(OC(C)=O)C2OC(C)=O)cc1 (stereo unspecified) | ? | · | 2% | · | -23 | · | ?
26 | COC(=O)Cc1c(O)ccn(Cc2ccc(F)cc2)c1=O | -13% | 0 | 0% | 2.7 | -8 | 1% | -0.9%
27 | COc1ccc(C2=NOC(Cn3nc(C(=O)NCC4CC4)cc3-c3ccccc3)C2)cc1 (stereo unspecified) | · | 13 | ? | · | 13 | · | -5.4%
28 | Cn1cccc1Cc1nnc(SCC(N)=O)n1CCc1ccccc1 | -1% | 3 | 0% | 0.5 | -3 | -2% | 2.3%
29 | Cc1c(NC(=S)NC(=O)c2cc3ccccc3o2)c(=O)n(-c2ccccc2)n1C | -29% | -3 | 2% | 2.1 | -1 | -19% | 91%
30 | CN(Cc1ccccc1)C(=O)CC(c1ccccc1)c1cc(Cl)ccc1O (stereo unspecified) | -22% | -4 | -20% | 5.2 | -6 | 3% | -1.5%
31 | COC(=O)C(NC(=O)CNS(=O)(=O)c1ccc(Br)cc1)c1ccccc1 (stereo unspecified) | 1%[15.4 µM] | -8 | -15% | -0.9 | -1 | -10% | ·
32 | O=C(Oc1ccc(O)cc1)C12CC3CC(CC(C3)C1)C2 | -26% | -17 | 4% | 11 | -4 | -5% | -2.6%
33 | O=C(c1cccs1)N1CCN(c2ccc(Cl)cc2)CC1 | -47%[inhibitor] | -17 | 3% | -0.4 | 1 | 8% | ·
34 | COC(=O)C1=C(C)NC(=O)NC1c1ccco1 (stereo unspecified) | 5% | 7 | 5% | 1.6 | -1 | 17% | ·
35 | O=C(CCS(=O)(=O)c1ccccc1)Nc1nnc(C(F)(F)F)s1 | -8% | 2 | -26% | -2.6 | 0 | 4% | ·
36 | COc1ccc2c(c1)c(CC(=O)NCc1cc([N+](=O)[O-])ccc1O)c(C)n2C(=O)c1ccc(Cl)cc1 | 8% | 2 | 35µM* | · | 3 | ? | 1.3%
37 | Cc1cc(C(=O)COc2ccc(C#N)cc2)c(C)n1C1CC1 | -16%[15.4 µM] | -24 | 6% | · | -1 | · | ·
38 | CCCC(=O)Nc1nc2nc(-c3ccccc3)cc(=O)n2[nH]1 | 4% | 30 | 5% | 0.5 | -7 | ? | -12%
39 | CC(C)c1ccc(C(=O)NN2CCOCC2)cc1 | -34%[inhibitor] | -34 | 14% | · | -1 | 0% | -2.3%
40 | O=S(=O)(NC1CCCCC1)c1ccc(Cl)s1 | 11% | -3 | 9% | -1.8 | -10 | -14% | 0.4%
41 | c1ccc(Cn2nnc3c(N4CCCC4)ncnc32)cc1 | -15% | -8 | 12% | -0.5 | -6 | -13% | -3.2%
42 | CCOc1[nH]n(-c2ccccc2)c(=O)c1C=NCc1ccncc1 | ? | -4 | -3% | -4.5 | -3 | 24% | -1.6%
43 | CCN(CC)C(=O)/C(=C\c1cccc([N+](=O)[O-])c1)NC(=O)c1ccco1 | 4% | 12 | 3% | 1.9 | -4 | 13% | -0.2%
44 | Cc1ccc(C)c2nc(Cl)c(C3NC(=O)c4ccccc4N3)cc12 (stereo unspecified) | 20% | -5 | -5% | -1.2 | -8 | -4% | -1.7%
45 | COc1ccc(C(CNC(=O)c2cccn2C)N2CCOCC2)cc1 (stereo unspecified) | 21% | -6 | 4% | · | -5 | · | 0.3%
46 | COc1ccc(OCC(=O)Nc2ccc3c(c2)nc(CCN2CCOCC2)n3C)cc1 | -30% | 6 | 7% | -0.6 | -3 | 14% | -6.0%
47 | O=C(c1nc2ccc(Cl)cn2c1CN1CCC[C@H]1CO)N1CCCCCCC1 | -4% | 5 | -2% | · | -6 | -5% | -2.9%
48 | Cc1csc(OCc2ccc(C#N)cc2)n1 | -17% | -21 | 13% | 4.7 | -4 | 13% | 0.6%
49 | O=C1N/C(=C/c2ccc(N3CCCC3)cc2)C(=O)N1c1ccccc1 | -6%[15.4 µM] | 18 | -10% | · | -3 | 11% | 1.2%
50 | COC(=O)c1sc2nc(CN3CCN(c4cccc(C(F)(F)F)c4)CC3)[nH]c(=O)c2c1C | 9% | -8 | 2% | ? | -9 | -8% | ·

From PubChem
